# HNF4A DNA FP: change in binding of human HNF4A to DNA, primary screen, biochemical, fluorescence polarization, FITC-DNA; Hepatocyte nuclear factor 4-alpha (Homo sapiens), P41235; 1 h; activity change, % at 10 µM; actives 0.3% (n = 360,000); in the data active means activity change above about 30%, passing the limit was not always enough;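 further: controls were the assay level and a saturating level of protein; the project sought stronger binding though the title names inhibitors; some compounds called inactive have numbers as strong as hits; positive values seem to mean higher polarization but the record does not say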
# Target sequence (P41235 whole entry, looked up): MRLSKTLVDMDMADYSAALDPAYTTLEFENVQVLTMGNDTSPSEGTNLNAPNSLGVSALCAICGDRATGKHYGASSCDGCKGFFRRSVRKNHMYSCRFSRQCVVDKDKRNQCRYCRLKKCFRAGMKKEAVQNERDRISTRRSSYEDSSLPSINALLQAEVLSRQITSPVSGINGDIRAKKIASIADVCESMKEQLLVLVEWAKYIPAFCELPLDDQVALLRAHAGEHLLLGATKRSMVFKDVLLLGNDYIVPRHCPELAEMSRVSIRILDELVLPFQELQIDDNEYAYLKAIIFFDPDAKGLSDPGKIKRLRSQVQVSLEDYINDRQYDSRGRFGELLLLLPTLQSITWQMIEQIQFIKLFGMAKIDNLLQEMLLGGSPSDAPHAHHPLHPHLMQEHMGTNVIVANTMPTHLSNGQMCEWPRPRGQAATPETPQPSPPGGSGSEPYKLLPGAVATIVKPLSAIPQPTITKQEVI
# ALR H2O2 inh: inhibitors of human ALR sulfhydryl oxidase, primary screen, biochemical, H2O2 detection, HRP-luminol luminescence, single point; inhibition, % (test concentration not listed); FAD-linked sulfhydryl oxidase ALR (Homo sapiens), P55789; AID 485317, 2010; purified ALR, DTT oxidation; actives 3.8% (n = 290,000);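 active means mean and each replicate at 75% or more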;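 further: stock transfer was 7.5 nL into about 7.5 µL; 0% = neutral wells and 100% = wells with inactivated enzyme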
# E coli growth: E. coli growth inhibition, primary screen, OD600; Escherichia coli growth, 23 h; active compounds read low; OD600 absorbance (no concentration beside the values); actives 0.21% (n = 330,000); AID 1053175, 2014;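 active means OD600 absorbance below the run mean of sample wells minus 3.6 SD, in any replicate, cut at about 0.56 in these data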;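 further: stock transfer was 300 nL into about 60 µL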
# UCH37 inh: inhibitors of human UCH37 deubiquitinase, primary screen, biochemical, Ub-AMC cleavage, fluorescence; purified proteasome/UCH37; AID 588478, 2011; actives 0.33% (n = 330,000); inhibition, % (no concentration beside the values); Ubiquitin carboxyl-terminal hydrolase isozyme L5 (Homo sapiens), Q9Y5K5;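 active means mean of two replicates above 20%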;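 further: 0% = compound-free wells with enzyme and 100% = wells lacking proteasome; stock transfer was 100 nL into about 20 µL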
#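 Reagent: Ub-AMC substrate; assay system: Proteasome-associated human UCH37 deubiquitinase; controls: no-proteasome and no-compound wells; read-out: % inhibition of Ub-AMC cleavage fluorescence; timing: 30 min preincubation with enzyme, 25 min cleavage at room temperature; signal: AMC fluorescence from Ub-AMC cleavage, excitation 355 nm, emission 460 nm; buffer or medium: Tris-HCl pH 7.4 plus ovalbumin, ATP-MgCl2, DTT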
# Beta2AR agonist: beta2AR agonists driving receptor internalization, primary screen, cell-based, FAP fluorogen, flow cytometry; Beta-2 adrenergic receptor (Homo sapiens), P07550; Am2.2-beta2AR cells; reference of the scale not given here; response, % (no concentration beside the values); actives 0.43% (n = 340,000); AID 504454, 2011;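 active means response above a set limit, near 3 SD of response in nonfluorescent compounds, cut at about 42% in these data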;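 further: stock transfer was 100 nL into about 11 µL; a reference agonist was the positive control; negative values mostly stem from fluorescent compounds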
# Target sequence (P07550 whole entry, looked up): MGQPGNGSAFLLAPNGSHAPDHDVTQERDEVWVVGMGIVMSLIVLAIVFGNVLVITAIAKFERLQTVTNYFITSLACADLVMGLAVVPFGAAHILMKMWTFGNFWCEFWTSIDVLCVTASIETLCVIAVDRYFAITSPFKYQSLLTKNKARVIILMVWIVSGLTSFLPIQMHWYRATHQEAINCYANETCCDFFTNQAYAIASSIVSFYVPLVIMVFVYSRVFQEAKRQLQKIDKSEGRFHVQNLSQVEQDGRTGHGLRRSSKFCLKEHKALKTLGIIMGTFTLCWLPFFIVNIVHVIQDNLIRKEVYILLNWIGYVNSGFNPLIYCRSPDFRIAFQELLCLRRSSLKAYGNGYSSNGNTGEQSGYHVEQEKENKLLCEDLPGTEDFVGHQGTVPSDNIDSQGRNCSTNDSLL
# Ecoli rRNA inh: reduced GFP signal of wild-type E. coli, primary screen, bacterial rRNA inhibitor project, GFP/RFP fluorescence, OD600, single point. E. coli WT GFP vs humanized-ribosome RFP mutants, 24 h; active compounds read low; DMSO median 0, no signal -100. GFP signal change (wild-type ribosome), % (concentration not given with the values). actives 1.6% (n = 350,000);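 active means significant combined selectivity score with lowered wild-type GFP, culture density cut under 30%, mutant RFP and density less affected; inactive means any of these conditions unmet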; further: one replicate is shown; some compounds called inactive have numbers as strong as hits
# FGF22 binding: binders of human FGF22 protein, primary screen, FGF22 synaptogenesis inhibitor project, biophysical, thermal shift, single point; Fibroblast growth factor 22 (Homo sapiens), Q9HCT0; recombinant FGF22 thermal shift, SYPRO orange fluorescence; percent of sucrose octasulfate shift, DMSO zero; calls only at 9.99 µM; actives 1.5% (n = 340,000);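 active means melting point raised past a set limit in the mean and every replicate; three in four hits are not shown here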
# Ecoli rRNA inh OD600: also measured in Ecoli rRNA inh; calls as there; OD600 change, %; measured here: OD600 growth;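 optical density of the mix in the first replicate; 0 = DMSO median and -100 = no signal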
# Ecoli rRNA inh RFP: second read-out of Ecoli rRNA inh, no call of its own (marks repeat the call); RFP signal change, %; measured here: RFP humanized mutant strains;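 first replicate; 0 = DMSO median and -100 = no signal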
# * = called active by the depositor; i = inactive; . = not tested or not shown.
SMILES,HNF4A DNA FP,ALR H2O2 inh,E coli growth,UCH37 inh,Beta2AR agonist,Ecoli rRNA inh,Ecoli rRNA inh OD600,Ecoli rRNA inh RFP,FGF22 binding
CCOc1ccc(CCNC(=O)C2CCN(C(=O)N(C)C)CC2)cc1OCC,0.8,1,0.65,2.1,1,.,.,.,.
Cc1ccc(NC(=O)CCC(=O)NNC(=S)Nc2ccc(F)cc2F)cc1C,2.3,63,0.69,4.9,6,-7,-1,-2.1,i
O=C1c2cc(N3CCCC3)c([N+](=O)[O-])cc2C(=O)N1c1ccccc1,-0.2,-8,0.72,2.6,-9,22,22,1.3,i
COc1ccc(CNS(=O)(=O)c2ccc(-n3cnnn3)c(C)c2)cc1,-0.7,-2,0.67,1.7,5,10,8,-0.3,i
O=C(CCC(=O)NC1CC1)Nc1nnc(C2CCCCC2)s1,-3.9,-2,0.74,-2.1,3,.,.,.,.
O=C(NCC1CCCN(Cc2cccc(F)c2)C1)c1cccc2ccccc12 (stereo not drawn),-2.5,-9,0.67,0.9,-5,-8,-4,-0.8,i
CN(C#N)c1nc(Cl)nc(Nc2cccc(Cl)c2)n1,-2.5,15,.,1.2,24,.,.,.,.
COC(=O)CCN1CCC2CC1c1cc(N3CCCCC3)ccc12 (stereo not drawn),4.4,.,.,.,.,7,-3,-0.7,i
CCN(C(=O)Cn1cnc2c1c(=O)n(C)c(=O)n2C)C1CCCCC1,0.3,-1,0.67,0.8,-5,-6,-6,-3.0,i
CC(=O)N/C(=C\c1ccccc1)C(=O)OCc1ccc(C)cc1,-1.8,-5,0.68,3.4,-3,-1,-7,0.5,i
Cc1nc(SCC(=O)Nc2cc(C)on2)c2c(=O)n(C)c(=O)n(C)c2n1,3.7,1,0.79,1.7,-2,.,.,.,.
CCNC(=O)c1cc(Cl)ccc1OC,-2.5,2,0.71,2.1,-4,13,11,-1.2,i
Cc1ccc(S(=O)(=O)NCCc2nc3ccccc3[nH]2)cc1,5.0,-3,0.69,4.0,-7,6,1,-0.8,i
COc1cccc(N2CCN(c3ncnc4c3cnn4-c3ccc(C)cc3C)CC2)c1,3.5,.,0.79,4.6,40,-8,-6,27,i
CCOC(=O)c1[nH]c(C)c(C(=O)/C=C/c2ccc(C(=O)O)cc2)c1C,-4.7,10,0.66,7.7,7,-5,-6,0.7,i
COc1ccc2cc(C(=O)N(C)CC(=O)Nc3ccccc3Br)ccc2c1,0.8,-5,0.65,-1.3,-4,.,.,.,i
CSc1ccc(/C=C(/NC(=O)c2ccco2)C(=O)NCc2ccco2)cc1,3.5,-16,0.69,-0.5,-3,7,5,-0.5,i
COc1ccc(C2=NN(C(=O)c3ccccc3)C(c3ccccc3)C2)c(O)c1 (stereo not drawn),-5.3,.,0.71,-1.2,1,13,16,-2.7,i
COc1ccc(-c2nc(CN3CCC(C(=O)N4CCOCC4)CC3)c(C)o2)cc1OC,2.9,-1,0.68,4.3,3,1,13,-1.3,i
O=C(O)c1ccccc1C(=O)N(Cc1ccccc1)Cc1ccccc1,-1.0,.,0.67,1.0,4,.,.,.,.
Cc1c(C)[n+](=O)c(C)c(C)n1[O-],2.3,.,0.72,3.0,-2,9,7,-1.8,.
CC(=O)N1c2ccc(S(=O)(=O)N3CCCC(C(=O)N4CCC(C)CC4)C3)cc2CC1C (stereo not drawn),0.0,.,0.72,1.2,-4,-3,-3,-0.8,i
CN(/C(=N/S(=O)(=O)c1cccs1)c1ccccc1)c1ccccc1,0.2,-2,.,.,-5,.,.,.,.
Cc1ccc2[nH]c(=O)c(CN(Cc3ccco3)C(=O)CN3CCCC(C)C3)cc2c1 (stereo not drawn),2.0,-3,0.63,-7.8,-7,16,16,7.0,i
N#CC(C#N)=CC1=C2OC(c3ccccc3)=CC(c3ccccc3)=C2CCC1,-4.0,.,0.67,5.5,4,.,.,.,.

# The list goes on.
SMILES,HNF4A DNA FP,ALR H2O2 inh,E coli growth,UCH37 inh,Beta2AR agonist,Ecoli rRNA inh,Ecoli rRNA inh OD600,Ecoli rRNA inh RFP,FGF22 binding
CCOC(=O)C1(CC)NC(c2ccco2)C2C(=O)N(C)C(=O)C21 (stereo not drawn),-1.2,-11,0.72,0.8,-12,.,.,.,.
COc1[nH]c(/N=C/c2ccccc2)c(C#N)c1C#N,-2.1,19,.,.,10,.,.,.,.
CN(C(=O)C1CCN(S(=O)(=O)c2cccs2)CC1)c1ccccc1,-1.8,-1,0.7,0.9,12,10,-1,-0.8,i
OC(CNC1CCCc2ccccc21)COc1ccc2ccccc2c1 (stereo not drawn),-1.6,.,0.65,3.2,0,-30,-51,7.6,i
CCCN1C(=O)/C(=C\C=C2\N(CC)c3ccccc3C2(C)C)SC1=S,-0.1,.,0.67,9.9,i,10,12,59,i
O=C(CN1C(=O)COc2ccc(Cl)cc21)Nc1ccccn1,-0.8,.,0.66,0.9,-4,22,12,-0.8,i
CCCOc1ccc2c3c(c(=O)oc2c1OCCC)CCC3,3.3,-2,0.7,-22,-2,.,.,.,.
Cc1ccc(NC(=O)CCC(=O)c2ccc(Cl)s2)nc1,-3.3,-1,0.69,-5.4,7,21,18,9.5,i
Cc1noc(C)c1COC(=O)C1CCN(S(=O)(=O)c2ccc(F)cc2)CC1,0.3,.,0.69,3.4,-5,0,-3,2.7,i
COc1ccc(CNC(=O)COC(=O)c2ccc(Br)cc2)cc1,3.3,-7,0.7,3.0,5,9,5,2.6,i
O=C(CN(Cc1ccccc1)C1=NCCS1)c1ccc(Cl)cc1,-2.1,-20,0.71,8.0,5,-6,-10,-7.6,i
CN1/C(=C/C(=O)COC(=O)C2COc3ccccc3O2)C(C)(C)c2ccccc21 (stereo not drawn),6.0,.,0.67,-4.2,-1,12,0,51,i
Cc1nnc(Nc2ccc(Cl)cc2)n(N)c1=O,1.8,-18,0.67,2.5,2,.,.,.,.
S=C1NCCC12C(=S)Nc1ccccc12 (stereo not drawn),-2.5,42,0.78,9.6,4,.,.,.,i
COC(=O)C1CCN(c2cc(=O)n(-c3ccccc3Cl)c(=O)[nH]2)CC1,4.3,23,0.71,1.4,-3,.,.,.,.
O=C(Nc1ccc(O)c(C(=O)O)c1)c1cccc(NC(=O)c2ccco2)c1,-1.4,-2,0.7,1.6,-4,8,13,1.9,i
CCCCOC(=O)C[N+](C)(C)CCOC1CC2CCC1(C)C2(C)C (stereo not drawn),-0.5,-36,0.68,2.0,-1,-54,-76,-20,i
O=C(Nc1ccc(Cl)cn1)c1cccc(S(=O)(=O)N2CCCC2)c1,-2.8,-1,0.71,0.5,-3,-9,-1,-0.6,i
COc1ccc(C2CC3CC(c4ccccc4)N2O3)cc1 (stereo not drawn),-0.2,-6,0.71,0.3,-5,.,.,.,.
O=C(CC1OC(=O)c2ccccc21)Nc1cccc(S(=O)(=O)N2CCCCCC2)c1 (stereo not drawn),4.6,2,0.72,-0.9,6,-31,-28,-2.5,i
CCN1CCCc2cc(CN(CCN3CCOCC3)C(=O)Nc3ccc(C)c(C)c3)ccc21,-1.2,99*,0.65,-0.2,-1,.,.,.,.
CN(C)C(=O)CCc1ccc2c3c([nH]c2c1)[C@]1(CCc2ccccc2)[C@@H](C(=O)N2CCCCC2)C[C@H](CC(=O)NCCCn2ccnc2)C(=O)N1CC3,-6.1,.,0.69,2.7,-2,.,.,.,i
Cn1cc(C(=O)NCCN2CCN(c3cccc(Cl)c3)CC2)c2c3ccccc3n(C)c2c1=O,-2.9,-1,0.71,-27,13,.,.,.,.
N=c1sccn1CC(=O)Nc1ccc(S(N)(=O)=O)cc1,-1.5,.,0.69,4.1,-1,6,5,0.2,i
Cc1[nH]n(-c2cccc(Cl)c2)c(=O)c1C=NC12CN3CN(CN(C3)C1)C2,-1.1,2,0.75,5.0,2,.,.,.,.

# Next section.
SMILES,HNF4A DNA FP,ALR H2O2 inh,E coli growth,UCH37 inh,Beta2AR agonist,Ecoli rRNA inh,Ecoli rRNA inh OD600,Ecoli rRNA inh RFP,FGF22 binding
Cc1ccc(-c2n[nH]c(=S)n2/N=C/c2sccc2C)cc1,1.9,1,.,.,16,1,25,-2.9,i
COc1ccc(S(=O)(=O)c2c[nH]c(=S)[nH]c2=O)cc1Cl,0.2,60,0.68,16,-5,1,0,-0.1,i
CCn1ncc(Br)c1C(=O)Nc1ccc(Cl)cn1,2.9,1,0.68,3.5,-23,.,.,.,.
Cc1cc(C)cc(N(CC(=O)NCc2ccc(F)cc2)C(=O)CCC(=O)Nc2ccccn2)c1,-1.4,3,0.7,0.0,-6,-3,3,-1.5,i
CCn1nccc1C(=O)Nc1cc(Cl)cc(Cl)c1,-1.1,-5,0.62,3.7,0,.,.,.,.
Cc1ccc(-c2ccc(CCC(=O)O)n2-c2ccc(C(=O)O)cc2)cc1,-1.4,97*,.,.,0,-4,0,0.7,i
COc1cccc(C(=O)Nc2ccc(N3CCN(C(=O)c4ccco4)CC3)cc2)c1,-1.1,0,0.64,2.9,4,-6,-3,-0.7,i
Cc1onc(-c2ccccc2)c1C(=O)NNC(=O)c1ccccc1,-6.2,.,0.7,4.1,5,.,.,.,i
COC(=O)c1c(NC(NC(=O)CC(C)C)C(Cl)(Cl)Cl)sc2c1CCC2 (stereo not drawn),-2.2,10,0.72,2.8,10,.,.,.,.
O=C(CSC(=S)N1CCOCC1)Nc1nc(=O)c2ccccc2s1,.,3,0.69,1.7,.,.,.,.,.
O=C(Nc1ccccc1C(=O)NCc1cccnc1)c1ccc(Cl)cc1Cl,3.1,.,0.66,0.4,4,-34,-31,3.8,i
O=C(c1ccc2ncsc2c1)N1CCN(c2ccc(O)cc2)CC1,-2.8,99*,0.7,-0.3,-9,.,.,.,.
CCN(CC)S(=O)(=O)c1cc(NC(=O)C(C)Nc2ccccc2N2CCOCC2)ccc1C (stereo not drawn),-2.1,42,0.68,2.9,15,-21,-24,-1.4,i
CN1C(=O)/C(=C/c2cn(CC(=O)NCc3ccco3)c3ccccc23)NC1=S,.,97*,0.69,8.5,.,19,11,-6.2,i
COC(=O)c1cc([N+](=O)[O-])c(C)c(C)n1,1.1,.,.,.,.,5,11,-2.4,i

# Screening results (PubChem)

# A portion of the library, so the mix of outcomes need not match the whole.
